Compound activity as filed in PubChem.
MLL AF4-AF9 inh – MLL-AF4/AF9 protein interaction inhibition. inhibition, % at 10 µM. AlphaScreen, biotin-AF4 peptide binding to FLAG-AF9. actives 0.47% (n = 350,000). P42568;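 active = every replicate reaching a set inhibition limit, whatever the replicate mean, cut at about 25% in these data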;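 note: 0% = plate neutral control median and 100% = total signal loss; the record names both 10 and 1 µM as test concentration; the first replicate is given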
Target sequence (P42568 whole entry, looked up): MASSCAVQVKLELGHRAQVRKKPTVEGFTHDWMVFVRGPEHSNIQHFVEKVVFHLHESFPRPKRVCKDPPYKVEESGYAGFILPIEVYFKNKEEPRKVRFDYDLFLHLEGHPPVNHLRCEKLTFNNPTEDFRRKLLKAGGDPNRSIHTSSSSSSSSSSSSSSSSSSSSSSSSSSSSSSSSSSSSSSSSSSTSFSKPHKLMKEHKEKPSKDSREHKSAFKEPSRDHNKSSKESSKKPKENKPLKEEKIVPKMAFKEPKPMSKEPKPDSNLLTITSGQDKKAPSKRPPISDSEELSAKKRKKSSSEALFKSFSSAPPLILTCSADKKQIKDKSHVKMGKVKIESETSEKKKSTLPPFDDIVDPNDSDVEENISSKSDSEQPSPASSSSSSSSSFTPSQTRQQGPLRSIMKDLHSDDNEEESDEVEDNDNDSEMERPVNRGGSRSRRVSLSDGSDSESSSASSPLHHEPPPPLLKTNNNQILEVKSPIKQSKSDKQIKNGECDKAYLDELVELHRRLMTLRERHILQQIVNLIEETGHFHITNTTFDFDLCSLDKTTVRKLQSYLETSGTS
* hit, by the source's call; & = joins results of further samples. Not all compounds are listed. The share of hits here may be higher or lower than overall.

SMILES	MLL AF4-AF9 inh
COC(=O)CC1CC2(C(=O)OC)c3[nH]c4ccccc4c3CCN2C1=O (centres undefined)	-11.1
CCOc1ccc(-c2cc(C(=O)NC3CCCCC3)[nH]n2)c(C)c1	-1.9
COc1ccc(CCNC(=O)c2ccc(NC(=O)CC3SC(N4CCCCC4)=NC3=O)cc2)cc1 (centres undefined)	-2.8
CO[C@H]1CN(C)C(=O)c2ccc(NS(C)(=O)=O)cc2OC[C@@H](C)N(Cc2ccccc2)C[C@@H]1C	2.3
O=C(C1=C[C@@H](c2csc3ccccc23)C[C@@H](OCCCCO)O1)N1CCCCCCC1	1.5
CN(C)Cc1csc(Nc2ccc(C(F)(F)F)cn2)n1	2.1
COc1cccc(-c2ccc3n(c2=O)C[C@@H]2[C@@H](CO)[C@H](C(=O)N4CCOCC4)N[C@H]32)c1	-0.2
Cc1cc(C)nc(Nc2nc(C(N)c3ccccc3)cs2)n1 (centres undefined)	5.5
CC(C)NC(=O)Nc1ccc2c(c1)C(=O)N([C@H](C)CO)C[C@H](C)[C@H](CN(C)S(C)(=O)=O)O2	-3.5
CC(=O)N1CCCCN2[C@@H](CO)[C@@H](c3ccc(-c4cccc(C(=O)N(C)C)c4)cc3)[C@@H]2C1	-4.7
C[C@H]1CN([C@@H](C)CO)C(=O)c2cc(/C=C/c3ccccc3)cnc2O[C@@H]1CN(C)C(=O)Cc1ccccn1	0.3
COc1ccc(NC(=O)C2(C)CCN2Cc2ccc(OC(C)C)cc2)cc1OC (centres undefined)	1.7
C[C@@H]1CCCCO[C@@H](CN(C)S(=O)(=O)c2cccs2)[C@H](C)CN([C@H](C)CO)C(=O)c2cc(NS(=O)(=O)c3cccs3)ccc2O1	3.2
Cc1ccccc1-c1cnc2c(c1)C(=O)N([C@H](C)CO)C[C@H](C)[C@@H](CN(C)CC1CCCC1)O2	-3.9
COc1ccccc1-c1ccc2c(c1)[C@H]1[C@H](CCN1C(=O)C1CCOCC1)[C@H](CO)N2	1.2
C/C=C/c1ccc2c(c1)O[C@@H](CN(C)C(=O)NC1CCCC1)[C@@H](C)CN([C@@H](C)CO)S2(=O)=O	0.3
CCC(=O)N(C)C[C@@H]1Oc2cc(C#CCC3CCCC3)ccc2S(=O)(=O)N([C@@H](C)CO)C[C@@H]1C	2.8
CC(C)C#Cc1ccc([C@H]2[C@@H](CO)N3CCCCN(S(=O)(=O)Cc4ccccc4)C[C@H]23)cc1	5.0
C/C=C/c1cnc2c(c1)C(=O)N([C@H](C)CO)C[C@@H](C)[C@@H](CN(C)C(=O)NCCC)O2	-0.1
Cc1noc(C)c1S(=O)(=O)Nc1ccc2c(c1)C(=O)N([C@@H](C)CO)C[C@@H](C)[C@H](CN(C)C(=O)Nc1cccc3ccccc13)O2	-0.7
O=C(NCc1ccco1)C(=O)NN=Cc1ccccc1O	-1.4
Cc1noc(C)c1S(=O)(=O)N(C)C[C@H]1Oc2ccc(NS(=O)(=O)c3cccs3)cc2C(=O)N([C@H](C)CO)C[C@H]1C	1.8
Cc1cccc(-c2ccc([C@@H]3[C@@H](CO)N4CCCCN(C(=O)NC(C)C)C[C@H]34)cc2)c1	0.8
C[C@@H]1CCCCO[C@H](CN(C)S(=O)(=O)c2ccc(Cl)cc2)[C@@H](C)CN([C@@H](C)CO)C(=O)c2cc(NC(=O)c3ccncc3)ccc2O1	3.2
CC(=O)Nc1ccc(CN2C(=O)C(C)(C)ON=C2c2ccc(NC(C)=O)cc2)cc1	1.6
(more compounds)
SMILES	MLL AF4-AF9 inh
COc1ccc(NC(=O)Nc2ccc3c(c2)CC(=O)N([C@@H](C)CO)C[C@H](C)[C@@H](CN(C)C(=O)Nc2ccc(OC)cc2)O3)cc1	0.1
CCCNC(=O)N1[C@H](CO)[C@H](c2ccccc2C2=CCCCC2)[C@@H]1C#N	-0.1
O=C(C[C@H]1C[C@H]2c3cc(NC(=O)Nc4ccccc4)ccc3O[C@H]2[C@@H](CO)O1)NC1CCCC1	0.7
C/C=C/c1ccc2c(c1)O[C@@H](CN(C)C(=O)c1cccc(F)c1)[C@@H](C)CN([C@@H](C)CO)S2(=O)=O	3.9
CN1[C@@H]2Cn3c(ccc(-c4ccncc4)c3=O)[C@H]1[C@@H](C(=O)N1CCC(Cc3ccccc3)CC1)[C@@H]2CO	0.4
COc1ccccc1S(=O)(=O)N[C@H]1CC[C@@H](CCNC(=O)C2CCCC2)O[C@H]1CO	-14.2
C[C@@H]1CN([C@@H](C)CO)S(=O)(=O)c2ccc(Br)cc2O[C@H]1CN(C)S(=O)(=O)c1ccc(F)cc1	0.6
CO[C@H]1CN(C)C(=O)c2cc(NC(=O)c3ccc4c(c3)OCO4)ccc2OC[C@H](C)NC[C@H]1C	0.4
C[C@@H]1CN([C@H](C)CO)C(=O)Cc2cc(NC(=O)Nc3ccc(F)cc3)ccc2O[C@@H]1CN(C)S(=O)(=O)c1ccccc1	1.1
O=C(Nc1ccc2c(c1)OCCO2)C(c1cc2ccccc2o1)N1CCN(c2ccc(F)cc2)CC1 (centres undefined)	3.2
COc1ccc(S(=O)(=O)N(C)C[C@@H]2Oc3ccc(NC(=O)NC4CCCCC4)cc3CC(=O)N([C@@H](C)CO)C[C@@H]2C)cc1	2.0
COc1ncccc1-c1ccc2nncn2c1	1.2
C[C@@H]1CN([C@@H](C)CO)C(=O)c2c(c3ccccc3n2C)-c2ccccc2CO[C@@H]1CN(C)C(=O)[C@@H](Cc1ccccc1)N(C)C	11.7
CC(C)N1CCC1(C)C(=O)Nc1ccccc1OC(F)F (centres undefined)	-1.4
CC(C)CC#Cc1ccc2c(c1)O[C@@H](CN(C)Cc1cncnc1)[C@@H](C)CN([C@@H](C)CO)S2(=O)=O	3.1
CC(C)NC(=O)N(C)C[C@H]1Oc2cc(C#Cc3ccc(F)cc3)ccc2S(=O)(=O)N([C@H](C)CO)C[C@H]1C	-0.7&0.4&3.3
COc1ccc(NC(=O)N(C)C[C@H]2Oc3ccc(NS(=O)(=O)c4c(C)noc4C)cc3CC(=O)N([C@@H](C)CO)C[C@H]2C)cc1	-12.8
O=C(c1[nH]c(C(F)(F)F)nc1-c1ccccc1)N1CCN(C(=O)C2CCCO2)CC1 (centres undefined)	-2.5
Cc1ccc(S(=O)(=O)N2CCN(C(=O)COC(=O)CCOc3cc(C)ccc3C)CC2)c(C)c1	1.8
O=C(CCN1CCCCC1)N[C@H]1CC[C@H](CCn2cc(-c3cccc(F)c3)nn2)O[C@@H]1CO	3.1
COc1cccc(C#Cc2ccc([C@@H]3[C@@H](C#N)N(C(=O)C4CCCC4)[C@H]3CO)cc2)c1	-3.5
CCC(=O)Nc1ccc2c(c1)C(=O)N(C)C[C@H](OC)[C@@H](C)CN(CC1CCCCC1)[C@H](C)CO2	-0.4
CSc1ccc(Cn2c(C)c(C(=O)NCc3cccc(C)c3)sc2=O)cc1	-14.8
C[C@@H]1CN([C@H](C)CO)S(=O)(=O)c2ccc(-c3ccncc3)cc2O[C@@H]1CN(C)S(=O)(=O)c1ccccc1F	3.0
O=C(Nc1cccc(Cl)c1)N[C@H]1CC[C@H](CCNC(=O)C2CCC2)O[C@H]1CO	-6.7

Some of these compounds in order of heavy-atom count, low to high:
SMILES	MLL AF4-AF9 inh
COc1ncccc1-c1ccc2nncn2c1	1.2
CC(C)N1CCC1(C)C(=O)Nc1ccccc1OC(F)F (centres undefined)	-1.4
CSc1ccc(Cn2c(C)c(C(=O)NCc3cccc(C)c3)sc2=O)cc1	-14.8
O=C(c1[nH]c(C(F)(F)F)nc1-c1ccccc1)N1CCN(C(=O)C2CCCO2)CC1 (centres undefined)	-2.5
C[C@@H]1CN([C@@H](C)CO)S(=O)(=O)c2ccc(Br)cc2O[C@H]1CN(C)S(=O)(=O)c1ccc(F)cc1	0.6
C/C=C/c1ccc2c(c1)O[C@@H](CN(C)C(=O)c1cccc(F)c1)[C@@H](C)CN([C@@H](C)CO)S2(=O)=O	3.9
CC(C)CC#Cc1ccc2c(c1)O[C@@H](CN(C)Cc1cncnc1)[C@@H](C)CN([C@@H](C)CO)S2(=O)=O	3.1
C[C@@H]1CN([C@H](C)CO)S(=O)(=O)c2ccc(-c3ccncc3)cc2O[C@@H]1CN(C)S(=O)(=O)c1ccccc1F	3.0
COc1ccc(S(=O)(=O)N(C)C[C@@H]2Oc3ccc(NC(=O)NC4CCCCC4)cc3CC(=O)N([C@@H](C)CO)C[C@@H]2C)cc1	2.0
COc1ccc(NC(=O)N(C)C[C@H]2Oc3ccc(NS(=O)(=O)c4c(C)noc4C)cc3CC(=O)N([C@@H](C)CO)C[C@H]2C)cc1	-12.8
COc1ccc(NC(=O)Nc2ccc3c(c2)CC(=O)N([C@@H](C)CO)C[C@H](C)[C@@H](CN(C)C(=O)Nc2ccc(OC)cc2)O3)cc1	0.1

Continued.
SMILES	MLL AF4-AF9 inh
C[C@H](CO)N1C[C@H](C)[C@H](CN(C)CC2CC2)Oc2ccc(NS(=O)(=O)c3ccccc3)cc2C1=O	-1.9
Cc1cc(NC(=O)NC(=O)c2ccccc2NC(=O)CN)ccc1Oc1ncc(Br)cn1	-0.1
CN(C)C(=O)C[C@H]1CC[C@@H]2[C@H](COc3ccc(NC(=O)NCc4ccccc4)cc3C(=O)N2C)O1	0.0
CCCN1C[C@@H](C)[C@H](OC)CN(C)C(=O)c2cc(NS(=O)(=O)c3ccccc3)ccc2OC[C@@H]1C	2.6
COc1cccc(C(=O)Nc2ccc3c(c2)C(=O)N(C)[C@@H]2CC[C@H](CC(=O)NCCCN4CCOCC4)O[C@H]2CO3)c1	-2.3
Cc1ccc(S(=O)(=O)Nc2cccc3c2O[C@H](CN(C)C(=O)NC2CCCCC2)[C@H](C)CN([C@H](C)CO)C3=O)cc1	8.5
COc1cccc(-c2cnc3c(c2)C(=O)N([C@@H](C)CO)C[C@@H](C)[C@@H](CN(C)Cc2ccc(F)cc2)O3)c1	1.2
Cc1ccccc1S(=O)(=O)NCC[C@H]1CC[C@@H](NC(=O)C2CCOCC2)[C@@H](CO)O1	-2.2
O=C(C1CCOCC1)N1C[C@H]2[C@@H](c3ccccc31)[C@H](CO)N2Cc1ccc(Cl)cc1	-0.4
Cc1noc(C)c1S(=O)(=O)Nc1ccc2c(c1)CC(=O)N([C@H](C)CO)C[C@H](C)[C@H](CN(C)C(=O)Nc1ccccc1)O2	3.8
CC(C)NC(=O)Cn1nnc(-c2ccccc2)c1COc1ccc2ccccc2c1	-1.2
Cc1noc(C)c1NC(=O)N(C)C[C@H]1Oc2ccc(NC(=O)CCC(F)(F)F)cc2CC(=O)N([C@H](C)CO)C[C@@H]1C	-3.4
O=C(CC1CC1)N1CC2(C1)[C@H](c1ccccc1)[C@@H](CO)N2CC1CCOCC1	-1.4
C[C@@H]1CN([C@@H](C)CO)C(=O)c2cc(-c3ccc(C#N)cc3)cnc2O[C@@H]1CN(C)C(=O)Nc1ccccc1	2.5
CCNC(=O)C[C@H]1CC[C@H]2[C@@H](COc3ccc(NC(=O)Nc4ccccc4F)cc3C(=O)N2C)O1	-1.1
CO[C@@H]1CN(C)C(=O)c2ccc(NS(=O)(=O)c3ccccc3)cc2OC[C@@H](C)N(C(=O)NC(C)C)C[C@H]1C	-1.3
C[C@H]1CN([C@@H](C)CO)C(=O)c2cc(NC(=O)C3CCCCC3)ccc2O[C@@H]1CN(C)Cc1ccncc1	-1.2
O=C(C[C@@H]1CC[C@H]2[C@@H](COC[C@H](O)CN2C(=O)Nc2ccccc2)O1)NCCCN1CCOCC1	-4.4
CN(C)C(=O)C[C@@H]1CC[C@@H](NC(=O)C2CCOCC2)[C@H](CO)O1	-5.0
COCC#Cc1ccc2c(c1)O[C@H](CN(C)C(=O)C1CCC1)[C@H](C)CN([C@H](C)CO)S2(=O)=O	-4.1
CO[C@@H]1CN(C)C(=O)c2cc(NC(=O)Nc3ccc(F)cc3)ccc2OC[C@@H](C)N(C(=O)c2cnccn2)C[C@H]1C	-11.1
C/C=C/c1ccc([C@H]2[C@@H](CN(C)C(C)=O)N(C(=O)C3CC3)[C@H]2CO)cc1	-2.3
Cc1ccccc1S(=O)(=O)N(C)C[C@H]1OCc2ccccc2-c2c(n(C)c3ccccc23)C(=O)N([C@@H](C)CO)C[C@H]1C	-0.9
COc1ccc(NC(=O)N(C)C[C@H]2Oc3ccc(NC(=O)c4ccncc4)cc3CC(=O)N([C@@H](C)CO)C[C@@H]2C)cc1	-2.2
COCC(=O)N1C[C@H](C)[C@@H](OC)CN(C)C(=O)c2cc(NC(=O)c3ccc(OC)cc3)ccc2OC[C@H]1C	-6.0
Carrying on:
SMILES	MLL AF4-AF9 inh
CN(C)CC(=O)N[C@@H]1CC[C@@H](CCn2cc(CN(C)C)nn2)O[C@@H]1CO	-4.6
O=C1O[C@@H](c2ccccc2)[C@@H](c2ccccc2)N2[C@@H](c3ccc(O)cc3)[C@]3(C(=O)Nc4ccc(C#CC5(O)CCCCCC5)cc43)[C@@H](C(=O)NC[C@H](O)c3ccccc3)[C@H]12	1.6
C[C@@H]1CN([C@@H](C)CO)C(=O)c2cccc(NC(=O)Nc3ccc(C(F)(F)F)cc3)c2O[C@H]1CN(C)S(=O)(=O)c1ccc(Cl)cc1	1.0
CCCNC(=O)N(C)C[C@@H]1Oc2cc(C#Cc3ccccn3)ccc2S(=O)(=O)N([C@@H](C)CO)C[C@H]1C	1.0
COc1ccc(C(=O)Nc2ccc3c(c2)C(=O)N(C)C[C@H](OC)[C@@H](C)CN(C)[C@H](C)CO3)cc1	0.9
C[C@H]1CN([C@@H](C)CO)C(=O)CCCn2cc(nn2)CO[C@@H]1CN(C)S(=O)(=O)c1ccccc1F	0.2&-0.2&0.6
O=C(c1ccc(F)cc1)N1C[C@@H]2[C@H](c3ccccc31)[C@@H](CO)N2Cc1ccc2c(c1)OCO2	7.1
C[C@@H]1CN([C@@H](C)CO)C(=O)Cc2cc(NC(=O)NC3CCCCC3)ccc2O[C@H]1CN(C)Cc1ccc(C(F)(F)F)cc1	1.2
Cc1cccc(S(=O)(=O)N[C@H]2CC[C@@H](CCNC(=O)Nc3cc(F)ccc3F)O[C@@H]2CO)c1	8.5
O=C(C[C@H]1CC[C@H](NC(=O)Nc2ccc3c(c2)OCO3)[C@@H](CO)O1)NCc1ccc2c(c1)OCO2	0.5
O=C(N[C@H]1CC[C@@H](CCNC(=O)C2CCC2)O[C@H]1CO)c1ccncc1	-1.6
CCN(CC)c1ccc2nc3ccc(N)cc3[n+](-c3ccccc3)c2c1	49.8*
